# Sa growth 42C: S. aureus growth inhibition at 42 and 30 °C, primary screen, LtaS inhibitor project, RN4220, two temperatures. OD600, 20 h, 42 °C; hits give low values. relative growth, % (no concentration beside the values). 170,000 compounds, 0.53% hits;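 active = growth at 42 °C up to 50% and 20 or more points under that at 30 °C, or under 10% at both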;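 note: 300 nL library stock went into each well; scaled to the means of positive and negative controls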
# GIV Gai3 FP: inhibitors of GIV peptide binding to Galpha-i3, primary screen, biochemical, fluorescence polarization, FITC-GIV GBA peptide, rat Galphai3; Guanine nucleotide-binding protein G(i) subunit alpha-3 (Rattus norvegicus), P08753; 90 min; hits give low values; scaled: aluminum fluoride 0%, vehicle 100%; percent of control (FP), % (no concentration beside the values); 210,000 compounds, 0.42% hits;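 active = replicate mean at 85% of control or lower, very high polarization wells dropped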;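 note: wells of about 15 µL received 100 nL stock; the first replicate is given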
# Target sequence (P08753 whole entry, looked up): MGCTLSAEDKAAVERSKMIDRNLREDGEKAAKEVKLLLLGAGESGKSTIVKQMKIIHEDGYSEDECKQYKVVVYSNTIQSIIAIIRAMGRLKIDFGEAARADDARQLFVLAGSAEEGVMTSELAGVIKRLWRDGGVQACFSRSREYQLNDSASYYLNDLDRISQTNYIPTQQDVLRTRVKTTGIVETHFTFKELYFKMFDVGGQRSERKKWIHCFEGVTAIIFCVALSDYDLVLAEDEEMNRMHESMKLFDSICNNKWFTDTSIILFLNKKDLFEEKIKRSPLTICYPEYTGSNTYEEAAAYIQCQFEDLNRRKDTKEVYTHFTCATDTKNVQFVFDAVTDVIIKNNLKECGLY
# HCMV UL50-53 inh: inhibitors of HCMV UL50-UL53 interaction, biochemical, HTRF; inhibition, % (concentration not given with the values); AID 1918969, 2023; 190,000 compounds, 0.15% hits; HCMV UL50-UL53 nuclear egress complex (human cytomegalovirus); normalized percent inhibition;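 active = both replicates at 50% or more, plus weaker picks with an unusually low signal ratio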;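 note: stock transfer was 100 nL into about 20 µL; 0% = negative control wells and 100% = wells with untagged competitor protein; inactives centre near -12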
# Sa growth 42C second temp: further read-out of Sa growth 42C, marked with its call; relative growth, %; measured here: growth at 30 °C;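 optical density after 20 h as mean of two plates; 100% = untreated growth and lower means inhibition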
# An asterisk follows results filed as active; . = not tested or not shown; & = joins results of further samples.
no.	molecule	Sa growth 42C	Sa growth 42C second temp	GIV Gai3 FP	HCMV UL50-53 inh
1	O=C(O)CCC(=O)N1CCN(c2nc(-c3ccccc3Cl)c3cc(Br)ccc3n2)CC1	50	49	102	-29
2	CCc1ccccc1Nc1cc(C(=O)NCc2ccco2)c2ccccc2n1	98	95	111	8
3	Nc1ccccc1SC1=CS(=O)(=O)c2ccccc21	94	84	99	.
4	Cc1cccc(NC(=O)N2CCN(C(=O)c3nsc4ccccc34)CC2)c1C	86	83	102&101	.
5	COc1ccc(N(Cc2cc3ccc(C)cc3[nH]c2=O)C(=O)C(C)C)cc1	101	84	99	-10
6	COc1cccc(NC(=O)CSc2nc3c(oc4ccccc43)c(=O)n2Cc2ccco2)c1	107	80	102	-4
7	NC(=S)COc1ccc(F)cc1	100	93	.	0
8	C=CCC1c2cccc(C(=O)O)c2C(=O)N1c1cccc(OC)c1 (stereo not given)	204	89	102	.
9	O=C(O)c1occc1-c1ccccc1	117	92	.	-32
10	O=C(NCCCN1CCC(Cc2ccccc2)CC1)Nc1ccccc1F	.	.	103	-12
11	COc1ccc(CNC(=O)C(NS(=O)(=O)c2cccc3nsnc23)C(C)C)cc1 (stereo not given)	90	88	101	-83
12	COc1ccc(-c2cnc(C)o2)cc1S(=O)(=O)Nc1ccc(C)c(N(C)C)c1	127	95	106	.
13	N#Cc1ccc(CSc2ncccn2)cc1	85	83	.	11
14	Cc1ccccc1C(=O)Nc1ccc2nc(N3CCCCC3)cc(C)c2c1	92	89	104	-36
15	N#CCSc1ncnc2cc(-c3ccc(Cl)cc3)sc12	85	99	.	-30
16	CC1(C)Cc2c(c(N3CCOCC3)nc3oc(C(=O)c4ccccc4)c(N)c23)CO1	109	74	107	-14
17	Cc1ccc(C)c(OCc2nc3ccccc3n2C(C)C)c1	110	90	106	.
18	Cc1cc(NC(=O)c2ccccc2Cl)ccc1NC(=O)c1ccccc1	99	90	100	-20
19	O=C(OCC1CCCO1)c1ccc2c(c1)N(Cc1c(F)cccc1Cl)C(=O)c1ccccc1S2(=O)=O (stereo not given)	98	101	106&98	-16
20	CCC1CCCCN1C(=O)CCN1C(=O)/C(=C/c2ccc3c(c2)OCO3)SC1=S (stereo not given)	.	.	107	4
21	COc1cc(C)nc(SCC(N)=O)n1	95	86	102	.
22	CC(=O)N1CCN(S(=O)(=O)c2cccc(C(=O)NC3CCCCCC3)c2)CC1	113	94	.	0
23	O=C1CC(c2cccc(O)c2)c2cc3c(cc2N1)OCCO3 (stereo not given)	.	.	100	0
24	Cn1c(=O)c(=O)n(C)c2cc(S(=O)(=O)N3CCN(c4ccccc4)CC3)ccc21	106	92	100	-13
25	Cc1ccc(C)n1-c1cccc2cccnc12	94	56	124	-41

# (more compounds)
no.	molecule	Sa growth 42C	Sa growth 42C second temp	GIV Gai3 FP	HCMV UL50-53 inh
26	COC(=O)c1cc(N2C(=O)C3C4C=CC(CC4)C3C2=O)ccc1Cl (stereo not given)	.	.	106	1
27	O=C(NCCCN1CCN(c2ccccc2)CC1)c1nnc(-c2ccccc2)o1	.	.	96	-23
28	CCCCn1c(COc2ccccc2C#N)nc2cc(S(N)(=O)=O)ccc21	115	103	.	1
29	COC(=O)c1cc2sc(Cl)cc2n1CC(=O)Nc1ccc(C)cc1C	89	91	97	-5
30	O=C(Cc1c(F)cccc1Cl)NC(=O)Nc1ccc(F)c(Cl)c1	97	93	106	-30
31	Cc1nc2ccccc2n1-c1ccc(S(N)(=O)=O)cc1	53	68	.	11
32	CN(C)C(=O)CN1CCN(Cc2nc3c(Br)cc(Br)cc3c(=O)[nH]2)CC1	105	96	.	-1
33	COc1ccc(C(=O)NC2=Nc3ccccc3N=C(C)C2c2ccccc2)cc1 (stereo not given)	117	81	99&104	4
34	S=C(NCc1ccco1)NNC(=S)Nc1ccc(Cl)cc1	105	76	106	-24
35	CCCn1c(N)c(C(=O)CSc2ccc(S(=O)(=O)N3CCN(C)CC3)cn2)c(=O)[nH]c1=O	86	89	.	0
36	O=C(Cn1cnc2ccccc21)N1CCc2ccccc21	118	90	.	-20
37	O=C(Cc1ccccc1)Nc1ccc(-c2nc3ccccc3o2)cc1	.	.	113	-23
38	Cc1cc(C)c2cccnc2c1O	3.0*	3.5*	102	-32
39	Cc1cccc(CSc2nncn2C)c1	102	104	106	-10
40	CCN=C1SC(CC(=O)Nc2ccc(N3CCOCC3)cc2)C(=O)N1CC (stereo not given)	.	.	102	-11
41	COc1ccc(-c2noc(CSCC(=O)NCc3ccc(C)cc3)n2)cc1OC	.	.	101	2
42	O=C(O)C1CCC(CNCc2ccccc2Cl)CC1 (stereo not given)	84	91	104	-32
43	O=C(O)c1ccccc1C(=O)NCc1nc(-c2ccc(C(F)(F)F)cc2)no1	101	82	101	-32
44	Cc1cc(=O)n(C(C)(C)C)c(=O)n1Cc1ccccc1	110	104	101	-6
45	COc1ccc(S(=O)(=O)Nc2cncc(C(=O)Nc3ccc(C(F)(F)F)cc3)c2)cc1	107	82	104	.
46	O=C(CSc1nc2ccsc2c(=O)n1Cc1ccccc1Cl)NCc1ccc(Cl)cc1	126	101	101	.
47	CCN1c2ccccc2-n2cccc2C12CCN(C(=O)Nc1ccccc1C)CC2	.	.	99	-29
48	COc1cccc(-c2ccc(SCc3nc(-c4cc(OC)cc(OC)c4)no3)nn2)c1	.	.	103	-21
49	C/C(=N\OC(=O)c1ccc(C(F)(F)F)cc1)c1cc[nH]c1	91	84	107	-24
50	O=C(c1csc2c1CCCC2)N1CCCCCCC1	118	100	104	-43

# Remaining list, next part:
no.	molecule	Sa growth 42C	Sa growth 42C second temp	GIV Gai3 FP	HCMV UL50-53 inh
51	COC(=O)C(C)Oc1cc2oc(=O)c3c(c2cc1Cl)CCCC3 (stereo not given)	84	76	91	-16
52	CCCCN(Cc1ccccc1)C(=O)CN(C)S(=O)(=O)c1ccc2c(c1)c(=O)n(C)c(=O)n2C	94	96	109	20
53	Cc1[nH]c2ccccc2c1C(C#N)(C#N)C1C(=O)c2ccccc2C1=O	89	50	.	-41
54	Cc1nn(S(C)(=O)=O)c(C)c1S(=O)(=O)N1CCCC1	.	.	105	-18
55	CCc1ccccc1N1CC(c2nc3ccccc3n2CCC2CCCCC2)CC1=O (stereo not given)	43	17	102	1
56	Cc1ccc2c(c1)c1c(n2CC(O)CNC(C)(C)C)CCCC1 (stereo not given)	86	89	101	-4
57	CCOC(=O)N1CCC(NC(=O)C2CCN(c3nnc(-n4cccc4CNc4ccc(OCC)cc4)s3)CC2)CC1	89	76	99	-13
58	CCOc1ccc(OCCCC(=O)Nc2nc3ccccc3[nH]2)cc1	98	97	.	0
59	Cn1c(=O)n(CCN2CCCCC2)c(=O)c2c1nc1n2CCCN1C1CCCCC1	.	.	102	-28
60	CCOC(=O)C(Cc1c[nH]c2ccccc12)NC(=O)COc1ccc(Cl)cc1 (stereo not given)	86	98	109	.
61	CCN(CC)C(=O)Cn1c(C)c(/C=C/C2=CCN(C)CC2)c2ccccc21	113	87	219	-54
62	Cc1cc(-n2c(C)ccc2C)no1	67	84	119	-18
63	O=C1N=c2ccccc2=C1c1sc(Nc2cccc(C(F)(F)F)c2)nc1O	89	90	103	.
64	O=C1O[C@H]2C[C@@H]3C[C@H]2[C@H]1[C@@H]3C(=O)N(Cc1ccccc1)Cc1ccccc1	102	90	100	.
65	O=c1c2cc(-c3ccccc3)sc2ncn1-n1cccc1	119	90	.	0
66	CC1C(=N)N(c2nc(N(C)C)nc(N(C)C)n2)CC1=O (stereo not given)	102	93	100	-4
67	COc1ccc(-c2cc3c(=O)n(CC(=O)Nc4cccc(F)c4)ncn3n2)cc1	.	.	97	7
68	N#Cc1ccccc1N1C(=O)c2ccccc2S1(=O)=O	98	82	99	-2
69	CCOC(=O)c1cnc2cc(-c3ccco3)[nH]n2c1=O	101	95	111	-10
70	Cc1cc(=O)oc2cc(OCC(=O)NCC3CCCCC3)c(Cl)cc12	95	88	.	-3
71	CC(OC(=O)CCc1nc2ccccc2[nH]c1=O)C(=O)c1ccccc1 (stereo not given)	108	76	104	4
72	CCOC(=O)c1oc2ccc(OC)cc2c1CN1CCN(C)CC1	87	99	.	-4
73	O=c1cc(CSc2nnnn2C2CC2)nc2sccn12	83	86	.	-9
74	COCCn1c(SCC(=O)N2CCOCC2)nc2c(c1=O)SC(C)C2 (stereo not given)	89	88	93	.
75	COc1ccc(C2CC(c3ccc(C)cc3)=NN2C(=O)CCC(=O)O)cc1 (stereo not given)	.	.	103	-13

# Structural class, the compounds so far with a cyano group (five)
no.	molecule	Sa growth 42C	Sa growth 42C second temp	GIV Gai3 FP	HCMV UL50-53 inh
13	N#Cc1ccc(CSc2ncccn2)cc1	85	83	.	11
15	N#CCSc1ncnc2cc(-c3ccc(Cl)cc3)sc12	85	99	.	-30
28	CCCCn1c(COc2ccccc2C#N)nc2cc(S(N)(=O)=O)ccc21	115	103	.	1
53	Cc1[nH]c2ccccc2c1C(C#N)(C#N)C1C(=O)c2ccccc2C1=O	89	50	.	-41
68	N#Cc1ccccc1N1C(=O)c2ccccc2S1(=O)=O	98	82	99	-2

# Later entries:
no.	molecule	Sa growth 42C	Sa growth 42C second temp	GIV Gai3 FP	HCMV UL50-53 inh
76	O=C(O)c1ccc2c(c1)ncn2-c1ccc(Br)cc1	84	86	97	-10
77	CC1=NN(c2ccccc2)C(=O)/C1=C/c1cc(C)n(C2CC2)c1C	111	93	.	5
78	Cc1c(Cl)cccc1-c1ccc(CNCCSc2nnnn2-c2ccccc2)o1	92	66	102	-4
79	Cc1ccc(Cn2c(=O)n(Cc3ccccc3)c(=O)c3ccccc32)cc1	128	91	107	.
80	CCN(CC)S(=O)(=O)c1ccc2c(c1)nc(CCC(=O)OCc1ccc(C(=O)OC)o1)n2C	86	95	.	-25
81	CN(C)S(=O)(=O)c1ccc(NC(=O)COC(=O)C2CC3CCCC(C2)C3=O)cc1 (stereo not given)	114	98	.	0
82	Cc1cccc(NC(=O)CSc2ccccn2)c1	106	84	.	-14
83	CC(C)n1c(CNC(=O)c2ccccc2)nc2ccccc21	99	83	103	.
84	COc1nc(N2CCOCC2)nc(N2CCN(c3ccc(F)cc3)CC2)n1	99	90	103	-15
85	COc1ccc(Cn2c(CCC(=O)Nc3ccc(C)c(C)c3)nc3cccnc32)cc1	110	78	98&100	-18&-28
86	CCN(C(=O)c1cccn(Cc2ccccc2C)c1=O)c1ccccc1	108	103	109	.
87	CCn1c(CNC(=O)c2cccc(C)c2)nnc1SCC(=O)N1CCc2ccccc21	88	88	99	-5
88	CS(=O)(=O)N(CC(=O)NCc1ccncc1)c1ccccc1	112	78	101	-8
89	O=C(O)CCCNc1nc2ccccc2s1	102	97	.	1
90	CCOc1ccc(-c2cn3c(n2)sc2cc(C(=O)N4CCN(C)CC4)ccc23)cc1	86	63	106	.
91	Cc1ccc(Cl)cc1N1CCN(Cn2sc3ccccc3c2=O)CC1	-0.4*	-0.5*	.	-4
92	CCOC(=O)c1c(C=O)oc2c(C)cc(OC(=O)c3ccc(S(=O)(=O)N4CCCCC4)cc3)c(Br)c12	.	.	103	-10
93	CC(C)NC(=O)c1cc(-c2ccc(O)cc2)on1	105	83	108	.
94	COC(=O)/C(C#N)=C/c1cccc(/C=C(\C#N)C(=O)OC)c1	78	92	.	-12
95	O=C(CCN(CCCN1CCOCC1)C(=O)c1ccc(F)c(Cl)c1)N1CCNCC1	.	.	100	7
96	COc1ccccc1N1CC(C(=O)N2CCN(S(=O)(=O)c3cccs3)CC2)CC1=O (stereo not given)	79	88	.	-42
97	Cc1ccc(S(=O)(=O)N2CCc3cc4ccccc4nc32)cc1	.	.	111	-27
98	CN1c2ccc(Cl)cc2-c2nc(SCC(=O)NCc3ccccc3)ncc2S1(=O)=O	89	88	104	.
99	CCN(S(=O)(=O)c1ccc(F)cc1)S(=O)(=O)c1c(C)c(C)c(C)c(C)c1C	90	91	103	-26
100	COc1ccc(C2=Nc3ccccc3N(Cc3ccccc3C)C(=O)C2)cc1	.	.	97	-33

# Next records:
no.	molecule	Sa growth 42C	Sa growth 42C second temp	GIV Gai3 FP	HCMV UL50-53 inh
101	CNS(=O)(=O)c1ccc(C)cc1	108	91	.	-5
102	O=C(OCC(=O)N(c1ccccc1)C1CCCCC1)c1ccc(CO)cc1	86	93	.	-10
103	CCOC(=O)c1scc(-c2ccc(C)cc2)c1S(=O)(=O)N1CCN(c2ccccc2F)CC1	89	99	97	.
104	CCn1cc2nc(SCc3ccc(C)cc3)n(CCc3ccccc3)c(=O)c2n1	83	89	99	.
105	Cc1ccccc1C(=O)c1cccn1CC(=O)NCC1CCCO1 (stereo not given)	102	80	104	4
106	O=C(CSc1nnnn1-c1ccccc1)N1CCCCC1	99	89	.	0
107	Cc1c(O)ccc2c(CN(C)Cc3ccc(Cl)cc3)cc(=O)oc12	104	95	.	0
108	O=S(=O)(c1ccc(F)c(F)c1)N1CCC(n2cnc3cccnc32)CC1	.	.	106	3
109	Cc1ccccc1CSc1nc2c(sc3ccccc32)c(=O)n1CCCOC(C)C	99	99	112	.
110	NS(=O)(=O)c1ccc(CCNC(=O)C2Cc3ccccc3CN2C(=O)c2ccco2)cc1 (stereo not given)	86	99	.	6
111	O=C(Cc1cccc(CC(=O)c2ccccc2)c1)c1ccccc1	106	88	108	-3

# Screens (PubChem BioAssay)
